High-throughput results (PubChem)
hNpr1 antagonist – antagonists of human natriuretic peptide receptor Npr1; AID 1347048; HEK293 hNpr1 GloSensor cGMP, ANP-stimulated luminescence; actives 1.6% (n = 76,000); Potency, µM (highest dose often 46.3 µM), inactives show at the highest dose activity change, negative = inhibition, usual class: inhibitors; active = well fitted inhibition curve with a large enough effect; inconclusive = small, poorly fitted or top-dose-only effect; inactive = no such curve, though single readings can be large or run the other way;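 also: nearly all actives have a fitted effect of over 60% in size; nearly all hits also lower the signal before the agonist is added; a reference antagonist and vehicle were the controls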
Target sequence (P16066 whole entry, looked up): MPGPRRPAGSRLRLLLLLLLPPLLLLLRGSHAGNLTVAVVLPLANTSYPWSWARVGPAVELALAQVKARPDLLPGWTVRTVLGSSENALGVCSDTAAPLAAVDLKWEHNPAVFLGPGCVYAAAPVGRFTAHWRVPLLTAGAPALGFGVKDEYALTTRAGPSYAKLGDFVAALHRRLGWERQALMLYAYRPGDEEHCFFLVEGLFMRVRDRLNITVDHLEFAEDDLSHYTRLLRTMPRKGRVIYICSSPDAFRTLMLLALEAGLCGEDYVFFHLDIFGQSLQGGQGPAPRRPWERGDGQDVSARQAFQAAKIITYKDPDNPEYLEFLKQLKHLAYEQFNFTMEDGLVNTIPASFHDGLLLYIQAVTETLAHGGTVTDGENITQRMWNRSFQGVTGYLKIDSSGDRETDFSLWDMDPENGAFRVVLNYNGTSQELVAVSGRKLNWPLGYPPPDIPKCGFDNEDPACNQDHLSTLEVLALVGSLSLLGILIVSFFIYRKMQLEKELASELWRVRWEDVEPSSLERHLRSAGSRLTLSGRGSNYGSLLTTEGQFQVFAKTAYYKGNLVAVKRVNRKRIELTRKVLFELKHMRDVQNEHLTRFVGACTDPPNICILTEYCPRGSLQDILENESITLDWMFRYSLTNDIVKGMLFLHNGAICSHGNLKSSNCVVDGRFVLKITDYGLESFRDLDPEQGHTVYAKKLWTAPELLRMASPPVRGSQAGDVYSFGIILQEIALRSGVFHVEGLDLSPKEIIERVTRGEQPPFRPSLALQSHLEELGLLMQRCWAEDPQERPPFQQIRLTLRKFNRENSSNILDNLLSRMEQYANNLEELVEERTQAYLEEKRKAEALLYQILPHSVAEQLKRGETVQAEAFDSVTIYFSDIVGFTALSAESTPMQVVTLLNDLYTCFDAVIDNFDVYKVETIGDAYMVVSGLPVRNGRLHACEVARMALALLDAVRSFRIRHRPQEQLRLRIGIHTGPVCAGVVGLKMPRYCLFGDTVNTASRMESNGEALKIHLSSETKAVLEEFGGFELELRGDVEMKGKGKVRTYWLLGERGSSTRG
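HEK293 cells stably expressing human Npr1 and cGMP GloSensor pGS-40F, loaded 2 h with 2% GloSensor reagent, given compound 30 min at room temperature. Luminescence read before and 20 min after 0.1 nM hNppA.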
The depositor's hits bear a star; u = inconclusive; [ ] = remark or other dose. % is scaled to controls: 0 for no effect and ±100 for the full control effect; potency is read from the fitted curve at half-maximal effect.

canonical_smiles	hNpr1 antagonist
Cc1ccc(-c2cc3c(=O)n(CCNC(=O)c4cc(Cl)ccc4F)ccn3n2)cc1C	-1%
COCC1CN(S(=O)(=O)c2ccc(C)cc2)CC12CCOCC2 (configuration not stated)	3%
COc1ccc(OC)c(C(C)NCc2cn[nH]c2-c2ccc(F)cc2)c1 (configuration not stated)	1%
O=C1CCN(Cc2ccncc2)CCCC(c2nc(-c3cccnc3)no2)CCN1 (configuration not stated)	2%
COc1ccc([C@@H](NC(=O)CN2CCCCCC2=O)C2CC(O)C2)cc1F (some centres not stated)	2%
O=C1CC(c2ccccc2)N(Cc2ccc3c(c2)CCO3)CCCCCCN1 (configuration not stated)	-23%
COCCCn1c(CN(C)CCc2ccccc2)cnc1S(=O)(=O)C1CCCC1	1%
O=[S+]([O-])(c1ccccc1)N1CC2(COCCN(Cc3ccc(F)cc3F)C2)C1	-6%[70.6 µM]
Cc1cc(C)cc(C(=O)NC2CCN(c3cnn(C)c(=O)c3)CC2)c1	-12%
O=C(NCc1ccccc1-c1ccccc1)c1cn(Cc2ccc(F)cc2)nn1	3%
COc1cc(CN2CCN(c3cc(C)nc(N)n3)CC2CCO)cc(OC)c1 (configuration not stated)	8%
Cc1cccc(C(=O)N2CCC(c3noc(CO)n3)C2)c1 (configuration not stated)	-2%
CNC(=O)N1C[C@@H](CN(C)C)[C@H](NC(=O)CC2CCCC2)C1	-1%
Cc1cccc(CN2CCc3c(n(Cc4cccnc4)n(-c4ccccc4)c3=O)C2)n1	-5%[70.6 µM]
CCOc1ccc(CN2C[C@@H](CO)[C@H](c3ccncc3)C2)cc1	-20%
O=C(Nc1ccc(Oc2ccccc2)cc1)N[C@H]1CO[C@H]2[C@@H]1OC[C@H]2OC(=O)Nc1cccc(C(F)(F)F)c1	-15%
Cc1cc(C)c(S(=O)(=O)N2CC(c3nc(Cc4ccccc4)no3)C2)cc1C	-12%
Cc1cccc(OCC(=O)N2CCC[C@H]2c2nc(-c3ccccc3)no2)c1	-8%
CCCNc1ncc(CN2CCC(Cc3nn(C)c(=O)n3CC)CC2)cn1	4%
Cc1ccccc1-n1nc(-c2c(C)nc3scc(CC(=O)NC(C)C)n3c2=O)cc1C	0%
COc1cccc(C(=O)N2CC3(Cc4ccccc4N(C(C)=O)C3)C2)c1	-15%
O=C(NCc1ccco1)NC1CCc2nnc(C3CC3)n2CC1 (configuration not stated)	1%
COCc1nncn1C1CCN(C(=O)c2cc(C)cc(C)c2)CC1	4%
CN1C[C@@H](NC(=O)c2ccco2)C[C@H]1c1nc(-c2cccnc2)no1	0%[70.6 µM]
COc1ccc(-c2cc(C(=O)NCC[S+](C)(=O)[O-])c3c(c2)N(C)CCO3)cn1	-2%[70.6 µM]
CCN1CCc2[nH]cnc2C12CCN(C(=O)C1CCc3ccccc3C1)CC2 (configuration not stated)	1%
COc1cccc(CN2CCc3c(cc(C(=O)Nc4cc(C)ccc4C)n3C)C2)c1	-22%
CCc1nc(-c2c3n(c(=O)n(CC(=O)Nc4cccc(OC)c4)c2=O)CCCC3)no1	21%
Cc1cccc2[nH]c(CN(C)C(=O)c3ccc(CCC(C)(C)O)cc3)nc12	-4%
O=C1NCCCCCCN(C(=O)Cc2ccccc2)[C@@H]2CCC[C@H]12	2%
CS(=O)(=O)N1CCN(C(=O)N2CCOCC2)[C@@H](C(=O)N[C@@H](CC2CCCCC2)C(N)=O)C1	1%
COCCCNC(=O)c1c(C)noc1-c1cc(OC)c(OC)c(OC)c1	-1%
CN(C)C[C@@H]1CN(C2CCOCC2)C[C@H]1NC(=O)c1ccc(F)c(Cl)c1	-10%
CNC(=O)[C@@H]1CN(C(=O)c2cc(C)on2)C[C@H]1COC	-14%
CN(C(=O)Cc1ccsc1)C1CCc2nn(C)c(=O)n2CC1 (configuration not stated)	3%
CCc1nc2c(NC(=O)NC3CCCCC3)cccn2n1	-1%
COc1ccc(N2CCN(c3nc(C(=O)NCc4ccc(C)c(C)c4)cs3)CC2)cc1	13µM*
O=C(Nc1ccc(-c2cccc(F)c2)cc1)C1CCCN(C(=O)c2ccncc2)C1 (configuration not stated)	7.1µM*
COc1ccc2cc(C3CN(C(=O)c4cccc(CO)c4)CCO3)ccc2c1 (configuration not stated)	10µM*
CCCCC(=O)N1CCC2(CC1)Nc1ccccc1NC2=O	5%
O=C(C1CC1)N1CCCC(c2nc(CCOCC3CCOCC3)no2)C1 (configuration not stated)	2%
O=C(c1ccccc1C(F)(F)F)N1CCc2nc3cc[nH]n3c(=O)c2C1	1%
C=CCNC(=O)N[C@H]1CCN2C(=O)c3cc(-c4cc(Cl)ccc4OC)ccc3NC(=O)[C@@H]2C1	-4%
COCCC(=O)N1CCC(N2C(=O)C(O)C23CCCCC3)CC1 (configuration not stated)	3%
CC(C)CN1C(=O)c2ccccc2C(C(=O)N2CCSCC2)C12CCCC2 (configuration not stated)	-7%
COc1ccc(C(=O)Nc2ccc3n(c2=O)C[C@H]2C[C@@H]3CN(S(=O)(=O)c3ccc(OC)cc3)C2)cc1	-2%
COc1ccccc1OCC(=O)c1ccc2c(c1)N(CCCC(=O)NCC1CC1)C(=O)CO2	1%
O=C(O)c1cccc(C2CCCN(C(=O)Cc3cc(F)c(F)c(F)c3)C2)c1 (configuration not stated)	-4%
CN(Cc1ccc(F)cc1)S(=O)(=O)c1cccc(C(F)(F)F)c1	0%
O=c1n(Cc2ccc(Cl)cc2)nc2n1CCCC2	-22%
CCC(c1cccs1)N1C(=O)[C@H]2CN(Cc3cccnc3)C[C@H]2C1=O (some centres not stated)	-25%
Cc1cc(=O)n(CC(=O)Nc2ccc3c(c2)OCO3)c(N2CCc3ccccc3C2)n1	3%
Cc1ccc(C2Cn3nnc(C(=O)NC4CCCCC4)c3CO2)cc1 (configuration not stated)	-6%
CCc1cccc(NC(=O)Cn2c(COc3ccc(OC)cc3)nc(C)c(CCO)c2=O)c1	1%
O=S(=O)(NC[C@H]1OC[C@@H](NCc2ccccn2)[C@@H]1O)c1ccccc1	-4%[70.6 µM]
O=C(Cc1ccc(F)cc1)NCc1nnc2c(-c3nc(C4CC4)no3)cccn12	-8%
CNC(=O)[C@H]1C[C@H](Oc2cccnc2)CN1C(=O)NCc1ccc(C)cc1	-1%
O=C(NC1CC1)[C@@H]1CN(Cc2ccc(Cl)cc2F)C[C@H]1CO	-2%
c1ccc2ncc(CN3CCC[C@H]3c3nc(-c4ccc(OC5CCCCC5)nc4)no3)cc2c1	u
O=C1CC(c2noc(-c3ccc(F)cc3)n2)CN1c1ccc(F)c(Cl)c1 (configuration not stated)	-2%

The listing continues.
canonical_smiles	hNpr1 antagonist
CCOc1ccc(-c2nc(C3CC(=O)N(c4ccc(Cl)cc4)C3)no2)cc1 (configuration not stated)	-19%
N[C@H]1CO[C@H]2[C@@H]1OC[C@@H]2n1cc(-c2ccccc2)nn1	-1%[70.6 µM]
O=C(c1ccccc1Cl)N1CCC2(CC1)CC(=O)N(c1ccccc1)c1ccccc1O2	-6%
C[C@H]1[C@@H]2[C@@H](O)C([C@H](C)C(=O)NCCN3CCOCC3)CC[C@@]2(C)CC[C@@H]1NC(=O)c1cnccn1 (some centres not stated)	1%
CC[C@H]1CN(S(=O)(=O)c2ccc(OC)cc2)CC[C@H]1CC(=O)O	-11%[70.6 µM]
O=C(Cc1cccn1-c1ccc(F)cc1)NC1CCCC1	-17%
O=C(CC1CCOCC1)N1CCN(C(=O)c2ccco2)CC1	-8%
Cc1cc(C[C@@H]2COC[C@@H]2NC(=O)c2cnn(-c3ccccc3)c2)on1	4%
CCc1ccc(NC(=O)C(C)C2CCOCC2)cc1 (configuration not stated)	0%
O=C(NC1CCCCC1)N1CCCCCC1CN1CCCC1 (configuration not stated)	-2%
O=C(N[C@H]1C[C@H]2C(=O)NC[C@@H](CCC(=O)N3CCCCC3)N2C1)c1cccs1	-6%[70.6 µM]
CC(C)c1nnc(C2CN(C(=O)c3ccc(OC(F)(F)F)cc3)CC23CCOCC3)o1 (configuration not stated)	1%
Cc1cccc(CNC(=O)COc2ccc(NC(=O)C3CC3)cn2)c1	1%
CN(Cc1ccccc1F)Cc1ccccc1F	0%[70.6 µM]
Cc1ccc(-c2nnc(C3CN(C(=O)c4cccnc4C)CC34CCOCC4)o2)cc1 (configuration not stated)	0%
CN1C[C@@H](NS(=O)(=O)c2ccccc2)C[C@H]1c1nc(-c2ccccn2)no1	-28%[70.6 µM]
O=C1CCCN1CCCN1C(=O)[C@H]2CN(Cc3cccc(F)c3F)C[C@H]2C1=O	3%
COc1ccc(-c2nc(C(C)C)nc3c2CCN(C(=O)c2ccccc2F)CC3)cc1	2%
O=C1COCC2(CN1)CN(c1ccc(Oc3ccccc3)cc1)C2	7.1µM*
Cc1noc(-c2cn(C3CCN(C(=O)c4ccc(F)c(Cl)c4)C3)nn2)n1 (configuration not stated)	-1%
COCc1noc([C@@H]2CN(C(=O)CCC(C)C)C[C@H]2CO)n1	-3%
COC1CCC12CCN(C(=O)Cc1cccc(F)c1)CC2 (configuration not stated)	0%
COc1cc(F)ccc1-c1cc2c(nc1OC)nc(CC1CC1)n2C	-1%[70.6 µM]
CC1(C)CC2CC(C)(CN2C(=O)CC(c2ccccc2Cl)c2c[nH]c3ccccc23)C1 (configuration not stated)	-17%
c1cncc(-c2nc(CCNc3ncncn3)cs2)c1	0%
O=C(O)[C@H]1C[C@@H](C(=O)NCc2ccncc2)CN(C(=O)C2CC2)C1	11%
CCN1CC2(CCN(C(=O)c3cccc(N4CCOCC4)c3)CC2)OC1=O	1%
COc1ccc(C2(C(=O)NC3CCc4n[nH]c(=O)n4CC3)CCCCC2)cc1 (configuration not stated)	5%
COc1ccccc1C(=O)N1C[C@@H]2CCCN3CCC[C@@H]([C@H]23)[C@H]1CCCC(=O)N1CCOCC1	0%
CC(C)C(=O)N1CCC2(CC1)OC(=O)N(Cc1ccccc1C#N)C2(C)c1ccccc1 (configuration not stated)	-3%[70.6 µM]
N#Cc1ccc(CN2CC[C@H](c3nnc(-c4ccccc4F)o3)C2)cc1	-3%[70.6 µM]
COc1ccc(-c2cc(N3CCC(NC(=O)COc4ccccc4C)CC3)n[nH]2)cc1	u
Cn1ccc(NC(=O)C2(C)CN(Cc3ccccc3)Cc3ccc(N4CCOCC4)nc32)n1 (configuration not stated)	2%
COc1ccc(N(C)C(=O)c2c(C)oc3c2CN(Cc2ccc(F)cc2)CC3)cc1	-13%
COc1ccc2cc1Nc1ccc(cc1)C[C@H](NCc1ccc(O)cc1)C(=O)N(C)[C@H](C(=O)NCCOc1ccccc1)C2	-4%
O=C1NC2(CCN(C(=O)c3cccnc3)C2)N=C1c1ccncc1 (configuration not stated)	-2%[70.6 µM]

Compounds shown so far containing a thiophene ring, fused or not (three):
canonical_smiles	hNpr1 antagonist
CN(C(=O)Cc1ccsc1)C1CCc2nn(C)c(=O)n2CC1 (configuration not stated)	3%
CCC(c1cccs1)N1C(=O)[C@H]2CN(Cc3cccnc3)C[C@H]2C1=O (some centres not stated)	-25%
O=C(N[C@H]1C[C@H]2C(=O)NC[C@@H](CCC(=O)N3CCCCC3)N2C1)c1cccs1	-6%[70.6 µM]

(cont.)
canonical_smiles	hNpr1 antagonist
CCOC(=O)CCCn1nc2n(c1=O)CCN(Cc1cccc(Cl)c1)C2=O	0%
COc1ccccc1OCc1nc2c(n1Cc1ccccc1)C(=O)N(CC1CC1)CCN2	-2%[70.6 µM]
O=C(CC1COCCN1)N1CCN(C(=O)c2ccco2)CC1 (configuration not stated)	6%
CN1CCC2(C1)CN(Cc1ccccc1)c1ccc(C(=O)NC3COC3)cc12 (configuration not stated)	4%[70.6 µM]
Cc1cc(C(=O)N2CCC(c3nnc(Cn4ccnc4)n3C)CC2)on1	4%
Cc1ccc(CN2C(=O)NC3(CCCN(C(=O)c4ccc(C#N)cc4)C3)C2=O)cc1 (configuration not stated)	0%
COc1ccccc1NC(=O)C1c2ccccc2C(=O)N(CC(C)C)C12CCCC2 (configuration not stated)	1%
CCNC(=O)[C@@H]1C[C@H](N)CN1C(=O)[C@@H](C)c1ccc2cc(OC)ccc2c1	2%
CC(C)NC(=O)c1nc(-c2cccnc2)c2cnccn12	-3%[70.6 µM]
Cc1nn2c(c1-c1ccccc1Oc1ccccc1)N(C(=O)C(C)C)CCC2	-17%[70.6 µM]
CCc1nc(-c2c3n(c(=O)n(CC(=O)Nc4ccccc4CC)c2=O)CCCC3)no1	-2%
O=C1NCCOCCCN(Cc2cccc(F)c2)[C@H]2CCCC[C@@H]12	-1%
Cc1nc(NCc2cc(C3CC3)on2)cc(C2CC(O)C2)n1 (configuration not stated)	13%
Cc1ccc(CNC(=O)CCC2CCN(S(=O)(=O)c3ccccc3)CC2)o1	-12%
Cc1nc(C2CCN(C(=O)[C@H]3CNC[C@@H](C(=O)N4CCOCC4)C3)CC2)no1	-14%
O=C(c1ccc(F)cc1F)N1CCC2(CC1)N=C(c1ccc(Cl)cc1)NO2	14µM*
O=C(c1cc(F)cc(Cl)c1)N1CCc2nc(-c3cccc(F)c3)[nH]c2C1	3%
O=C1NCCN2CC3(CCN(S(=O)(=O)c4cccc5cccnc45)CC3)CC12 (configuration not stated)	2%

An excerpt; count on the stated rates, not on these rows.
